Hsc70 ATP site – small molecules displacing fluorescent ligand from Hsc70 – biochemical, fluorescence polarization, primary screen (AID 568). Hsc70 fluorescence polarization, probe displacement; higher % means a stronger effect; strong numbers were not always called active. displacement, % at 20 µM; hits with a dose series show IC50 in µM. 83,000 tested, under 10 active;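 active = displacement above 50% without optical interference and an IC50 on retest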;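 also: ATPase domain with a fluorescein-tagged ATP probe; 0% = vehicle and 100% = excess ADP; read after one hour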
MT1-MMP promoter – inhibitors of MT1-MMP promoter transcription, cell-based, luciferase reporter, luminescence (AID 618); MT1-MMP promoter luciferase reporter cells, luminescence; calls from a first round at 10 µM; hits with a dose series show EC50 in µM; actives 0.62% (n = 87,000);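 active = over half of the reporter light lost at 10 µM or EC50 under 50 µM; inactive = the rest and hits that failed the dose series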;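 also: actives suppress MT1-MMP promoter-driven transcription so potencies describe inhibitors; HT1080 fibrosarcoma cells; overnight exposure; toxic or luciferase-blocking compounds were not removed from the actives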
WNV NS2B-NS3 inh – inhibitors of West Nile virus NS2B-NS3 protease; WNV NS2B-NS3 protease, fluorogenic substrate Ex360/Em465; active compounds read low; z-score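 (tested at a level between 10 and 100 µM)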; actives 0.18% (n = 65,000); AID 577;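 active = z-score at -3 or under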;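 also: score is relative to mean and spread of the compound wells of a plate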
Target sequence (P06935 1371-1501 limits assumed): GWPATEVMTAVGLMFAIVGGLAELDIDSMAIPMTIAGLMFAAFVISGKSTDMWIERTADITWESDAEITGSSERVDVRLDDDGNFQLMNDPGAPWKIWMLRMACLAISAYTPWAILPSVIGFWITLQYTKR
Target sequence (P06935 1502-1679 limits assumed): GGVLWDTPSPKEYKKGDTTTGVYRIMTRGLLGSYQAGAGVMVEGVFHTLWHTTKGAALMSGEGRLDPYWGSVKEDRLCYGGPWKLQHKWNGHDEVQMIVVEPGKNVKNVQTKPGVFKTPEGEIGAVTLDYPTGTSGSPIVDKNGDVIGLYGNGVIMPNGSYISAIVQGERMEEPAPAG
* marks the source's active call; other numbers are inactive results; i = inactive; / = no result given.

SMILES	Hsc70 ATP site	MT1-MMP promoter	WNV NS2B-NS3 inh
COc1ccc(S(=O)(=O)N(C)c2ccc(OCC(=O)Nc3cc(C)on3)cc2)cc1	-1.1%	i	2.03
CCN(CC)CCCN1C(=O)c2oc3ccccc3c(=O)c2C1c1cccs1 (stereo not given)	10.2%	i	/
C=CCOc1c(CNc2nccs2)cccc1OCC	4.7%	i	1.39
CC(C)(C)C(=O)Nc1ccccc1C(=O)Nc1ccncc1	-2.1%	i	/
Cc1ccc2c(c1)c1c3n2CC(=C2C(=O)OC(C)(C)OC2=O)NC3CCC1 (stereo not given)	0.4%	i	0.41
O=S(=O)(NCc1cn2ccsc2n1)c1cccs1	-0.2%	i	-1.19
Cc1nc(/C=C/c2ccccc2)cc(/C=C/c2ccccc2)n1	1.4%	i	/
COc1ccc(-n2c(SCC(=O)OC(C)C)nnc2-c2ccccn2)cc1	-4.9%	i	-0.29
NC(=O)c1nsc(C(=O)N(CC(=O)NCc2ccco2)c2ccccc2F)c1N	5.0%	i	/
O=C(CN1CCCCCC1)OCCN=C1NS(=O)(=O)c2ccccc21	3.2%	i	-1.09
COC(=O)c1ccc(N2C(=O)c3ccc(OC)c(OC)c3C2=O)cc1	-8.3%	i	-0.17
CCOc1ccc(N2CSC3=C(C#N)C(c4ccco4)CC(=O)N3C2)cc1 (stereo not given)	2.6%	i	/
COc1ccccc1C(=O)NC(CCSC)C(=O)OCC(=O)NC(=O)NCc1ccco1 (stereo not given)	5.3%	i	-1
COCc1[nH]nc2c1C(c1ccccc1F)C(C#N)=C(N)O2 (stereo not given)	-3.1%	i	-0.6
Cc1sc2c(c1C)CN(C(C)(C)C)CN2C(=O)c1ccccc1	3.7%	i	/

Part of the list above, set out differently.
Value order: Hsc70 ATP site, MT1-MMP promoter, WNV NS2B-NS3 inh
> C=CCOc1c(CNc2nccs2)cccc1OCC
  4.7%, i, 1.39
> CC(C)(C)C(=O)Nc1ccccc1C(=O)Nc1ccncc1
  -2.1%, i, /

Next results.
SMILES	Hsc70 ATP site	MT1-MMP promoter	WNV NS2B-NS3 inh
Cc1cc(C)nc(NS(=O)(=O)c2ccc(N3C(=O)C4CC=C(Cl)CC4C3=O)cc2)n1 (stereo not given)	0.9%	i	-0.56
Cc1ccc(-c2nsc3c(N4CCN(C(=O)c5ccco5)CC4)ncnc23)cc1	-4.2%	i	0.4
CCOC(=O)CC1=C(C(=O)OCC)C(c2ccncc2)C(C#N)=C(N)O1 (stereo not given)	-0.2%	i	-1.08
CN1CCc2c(sc3c2c(NCc2ccco2)nc2nnnn23)C1	11.1%	i	1.28
CCOC(=O)c1cnc(-c2ccccc2)nc1N	1.1%	i	-0.39
CCc1ccc(C2CC(c3ccc(Cl)cc3)n3nc(N)nc3N2)cc1 (stereo not given)	-0.3%	i	1.51
N[C@@H](Cc1ccccc1)c1nnc2sc(SCc3ccccc3)nn12	-3.5%	i	-0.92
O=C1C(=O)N(CCOCCO)C(c2ccccn2)/C1=C(\O)c1ccccc1 (stereo not given)	-11.0%	i	-1.09
CCC(CC)C1C(C#N)=C(N)SC(N)=C1C#N	1.3%	i	/
CC(NC(=O)C1CCCC1)c1ccc2c(c1)OCCO2 (stereo not given)	6.5%	i	/
CCc1ccc2c(c1)C1(NN=C(c3cccc4ccccc34)S1)C(=O)N2 (stereo not given)	3.4%	i	/
Cn1nnc2cc(C(=O)NCc3ccc4c(c3)OCO4)ccc21	3.6%	i	-0.18
CCOC(=O)c1c(NC(=O)Cn2c(=O)oc3ccccc32)oc(C)c1C(C)=O	1.9%	i	-0.5
O=S(=O)(c1ccc(F)c2ccccc12)N1CCCCC1	-2.6%	i	0.59
COc1ccc(OCC(=O)OCCN(C)C)cc1	-4.7%	i	-0.93
CC(C)(CNC(=O)c1cc(=O)[nH]c2ccccc12)N1CCOCC1	-1.2%	i	/
O=C(CN1C2=NCCCN2c2ccccc21)c1ccc2c(c1)OCO2	-1.9%	i	-0.33
CCn1c(=O)cc(SCC(=O)N2CCOCC2)c2ccccc21	-2.6%	i	-0.44
CCN1CCN(C(=O)c2ccccc2N(C)S(=O)(=O)c2ccc(C)cc2)CC1	-5.3%	i	0.43
COc1cc2c(cc1OC)CN(S(C)(=O)=O)CC2	4.3%	i	0.5
CCC(C)Sc1nnc(-c2c[nH]c3ccccc23)n1CCOC (stereo not given)	4.1%	i	0.84
CC(=O)N(C)c1ccc(OCC(O)CN(Cc2ccco2)S(=O)(=O)c2ccc(C)cc2)cc1 (stereo not given)	-8.1%	i	0.72
Cc1sc2nc(C(C)C)nc(SCC(=O)N3CCN(C(=O)c4ccco4)CC3)c2c1C	-8.4%	i	-0.06
CC1CCC(C(C)C)C(OC(=O)CSc2nccc(=O)[nH]2)C1 (stereo not given)	-2.4%	i	/
Cc1cc(C[n+]2ccccc2)c2nsnc2c1	5.1%	i	/
CC(C)N1CC(O)=C(c2nc3ccccc3[nH]2)C1=N	1.0%	i	-0.47
Cc1ccc(Cn2nnc3c(=O)n(CC(=O)NCc4ccc5c(c4)OCO5)cnc32)cc1	-12.0%	i	-0.6
CC1CCN(C(=O)c2ccc(S(=O)(=O)N(C)C)cc2)C(C)C1 (stereo not given)	1.4%	i	/
COC(=O)C1=C(N)Oc2cc(C)n(CCN3CCOCC3)c(=O)c2C1c1cccnc1 (stereo not given)	2.1%	i	1.44
Cc1cccc(NC(=O)CCSc2nncn2C)c1	4.4%	i	/
C=CCn1c(C)c(C(C)=O)c(SC)nc1=S	8.7%	i	2.16
CC1(C)CC(NCc2ccc3c(c2)OCO3)CCO1 (stereo not given)	0.7%	i	/
CN(C)c1cccc(C(=O)NC2CCCCCC2)c1	-5.4%	i	-0.68
COc1cc2nc(COc3ccc(C#N)cc3)n(CC#N)c(=O)c2cc1OC	1.4%	i	-0.18
CC1(C)CC(=O)C(C2=NC(C)(C)Cc3ccccc32)=C(O)C1	-1.7%	i	-1.89
NC(=O)COc1c(-c2ccccc2)oc2ccccc2c1=O	-0.2%	i	-1.03
CC(C)OC(=O)c1c2nc3ccccc3nc2n2c1[nH]c(=O)c1ccccc12	-4.7%	i	1.21
Cc1cc(NC(=O)CCC(=O)N(c2ccc(F)cc2)C2(C(=O)NC3CCCCC3)CCCC2)no1	0.1%	i	0.61
CC1CCCN(S(=O)(=O)c2ccc(C(=O)Nc3nnc(-c4ccccc4Cl)o3)cc2)C1 (stereo not given)	3.1%	i	0.69
COc1ccc(NC(=O)C(C)N2c3cccc4cccc(c34)S2(=O)=O)cc1OC (stereo not given)	2.2%	i	/
CCC(=O)Nc1ccc2c(c1)nc(CN1CCN(C(C)=O)CC1)n2C	6.4%	i	/
CCOC(=O)CSc1nnc(Cn2c(=O)sc3ccccc32)n1-c1ccccc1C	-0.1%	i	-0.2
CC(NC(=O)CCC(=O)NC(C)C1COc2ccccc2O1)C1COc2ccccc2O1 (stereo not given)	1.6%	i	-0.43
O=C1CSC(c2ccc(Cl)cc2)N1C1CCCCC1 (stereo not given)	-1.3%	i	/
CCOC(=O)C1CCCN(C(=O)CCCn2nc(C)n3c(cc4sccc43)c2=O)C1 (stereo not given)	0.5%	i	-1.54
COc1ccc(NC(=O)Cn2cc(C(=O)c3ccco3)c3ccccc32)cc1	0.5%	i	/
Cc1ccc(-n2ncc3c(=O)[nH]c(SCC(=O)N4CCC(C)CC4)nc32)cc1C	5.4%	i	0.38
COc1ccc(NC(=O)C2C3C=CC(C3)C2C(=O)NCc2ccccn2)c(OC)c1 (stereo not given)	-1.7%	i	/
Cc1cc(NC(=O)C(C)C)ncc1NC(=O)CCc1ccccc1	-5.1%	i	-0.05
CCCCOC(=O)n1c(=S)oc2cc(Cl)ccc21	-1.3%	i	/
COc1cccc(-n2ccnc2SCC(=O)Nc2nccs2)c1	3.5%	i	0.86
O=C(NC(Cc1c[nH]c2ccccc12)C(=O)O)c1ccco1 (stereo not given)	-5.3%	i	/
O=c1cc(CSc2nnc(-c3ccco3)o2)c2ccccc2[nH]1	-3.1%	i	0.34
COc1ccc(S(=O)(=O)N(C)c2ccc(C(=O)NCCC(C)C)cc2)cc1	0.5%	i	/
CCOC(=O)C(C)C1(O)c2ccccc2-c2ncccc21 (stereo not given)	-1.6%	i	-0.74
CCOC(=O)N1CCN(CC(=O)c2c[nH]c3ccc(F)cc23)CC1	-4.1%	i	/
CC(NC(=O)Cc1ccsc1)c1ccc(S(N)(=O)=O)cc1 (stereo not given)	-1.3%	i	-0.16
C=CCC(=O)OCC(=O)Nc1ccc(Oc2ccccc2)cc1	3.9%	i	2.18
Cc1c(Cl)cccc1N(CC(=O)N1CCCCCC1)S(C)(=O)=O	-2.9%	i	0.97
CN1CCN(C(=O)CSc2nc(-c3cccs3)ccc2C#N)CC1	-16.7%	i	-0.42

Continuation:
SMILES	Hsc70 ATP site	MT1-MMP promoter	WNV NS2B-NS3 inh
Cc1ccc(N=Cc2c(O)n(-c3ccc4c(c3)OCO4)c(=O)c3ccccc23)cc1	3.2%	i	/
CCCc1[nH][nH]c(=O)c1C(c1ccc(Cl)cc1)C(C#N)C#N (stereo not given)	4.5%	i	/
COC(=O)Nc1nnc(-c2ccccc2Cl)s1	0.1%	i	0.64
CN(C)c1nc2c(c(=O)[nH]c(=O)n2C)n1Cc1ccccc1Br	-1.3%	i	-0.01
COC(=O)C1=C(C)N(CC2CCCO2)C(=O)C1 (stereo not given)	-2.8%	i	-0.00364
CCCC(c1nnnn1CC(=O)OCC)N(Cc1cc2ccc(C)cc2[nH]c1=O)C1CCCC1 (stereo not given)	-0.1%	i	-0.2
CCCCCCCCCCSc1n[nH]c(NC(C)=O)n1	3.2%	i	/
Cc1ccc(CC(NC(=O)c2ccccc2)C(=O)NCC(=O)O)cc1 (stereo not given)	8.1%	i	/
O=c1n(-c2ccccc2)c(=O)n2n1CCC2	-3.9%	i	-0.9
O=C(O)CCC(=O)c1ccc2c(c1)OCCO2	3.5%	i	0.96
Cn1nnc2cc(NC(=O)N3CCN(c4ccccn4)CC3)ccc21	1.5%	i	-0.19
CC(=O)Nc1sc2c(c1C(=O)N1CCOCC1)CCCCC2	2.8%	i	-0.92
COCCNC(=O)CN(CCc1ccccc1)S(=O)(=O)c1ccc(OC)cc1	-5.2%	i	/
COc1cccc(-n2c(Cc3cc(=O)[nH]c(=O)[nH]3)nnc2SCC(=O)N2CCCC2)c1	-1.4%	i	0.05
COCCn1c(=N)c(C(=O)NCc2ccco2)cc2c(=O)n3ccccc3nc21	6.6%	i	2.34
O=C(O)CC(c1ccc(Cl)cc1)n1cccc1 (stereo not given)	4.6%	i	-0.73
CC12CC3CC(C)(C1)CC(CN)(C3)C2	0.9%	i	/
O=C(COC(=O)C1CC(=O)N(Cc2ccco2)C1)c1ccc(OC(=O)c2ccccc2)cc1 (stereo not given)	0.7%	i	/
CCc1cccc(N=c2c([N+](=O)[O-])nn(-c3ccc(Cl)cc3)n2O)c1	-0.7%	i	/
O=C(CCN1C(=O)COc2ccccc21)NCCCN1CCN(c2ccc(F)cc2)CC1	-0.2%	i	-0.81
CN(c1ccccc1C(=O)Nc1ccc(S(=O)(=O)N2CCCCC2)cc1)S(C)(=O)=O	2.0%	i	-0.25
N=c1n(CCO)c2ccccc2n1CCOc1ccc(Cl)cc1Cl	4.3%	i	-1.28
O=C(NCC(c1cccnc1)N1CCN(c2ccccc2)CC1)C1CCCCC1 (stereo not given)	-1.4%	i	-0.28
COC(=O)c1cc(/C=C/c2ccccc2)on1	-4.0%	i	-1.47
CC(=O)C(C)Oc1ccc2c3c(c(=O)oc2c1)CCCCC3 (stereo not given)	2.8%	i	-0.01
COc1ccc(CN2CCC(C(=O)N3CCN(c4ccccc4F)CC3)CC2)cc1OC	4.7%	i	1.77
CC(C)(C)C1CCC2(CC1)C(Nc1cccc(C(F)(F)F)c1)=NC(=S)N2CC#N (stereo not given)	0.1%	i	/
CCC(C)NCC(O)COCc1ccc(Cl)cc1 (stereo not given)	-1.1%	i	0.85
CC1CCN(C(=O)Cn2cc(C(=O)c3ccco3)c3ccccc32)CC1	-6.4%	i	-0.9
O=c1nc(-c2ccccc2)cc(C(F)(F)F)[nH]1	-3.6%	i	/
O=C(NCc1ccccn1)c1n[nH]c2ccccc12	1.9%	i	-0.8
COc1ccc(C(=O)Cn2nnc(-c3ccccc3NC(=O)C3CCCCC3)n2)cc1	-10.1%	i	/

Fetched one by one from above:
SMILES	Hsc70 ATP site	MT1-MMP promoter	WNV NS2B-NS3 inh
COc1cc2c(cc1OC)CN(S(C)(=O)=O)CC2	4.3%	i	0.5
COCc1[nH]nc2c1C(c1ccccc1F)C(C#N)=C(N)O2 (stereo not given)	-3.1%	i	-0.6
CC(C)(C)C(=O)Nc1ccccc1C(=O)Nc1ccncc1	-2.1%	i	/
Cc1cc(NC(=O)C(C)C)ncc1NC(=O)CCc1ccccc1	-5.1%	i	-0.05
O=C(NC(Cc1c[nH]c2ccccc12)C(=O)O)c1ccco1 (stereo not given)	-5.3%	i	/

No enrichment for hits; about 0.8% have a hit in one of these screens.
